Bfl-1 A1 inh = inhibitors of the anti-apoptotic protein A1, read as caspase activation. MEF A1-2A-BIM cells, Caspase-Glo 3/7 luminescence, 3 h; percent of clofoctol response, vehicle zero. caspase activation, % (no concentration beside the values). 330,000 compounds, 0.066% hits. AID 2462;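 active = over half of replicate activation scores above 10%, or exactly half above 10 with the replicate mean above 10; inconclusive = replicate mean below 10 yet half the replicates above 10; inactive = over half of replicates below 10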;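 note: wells of about 30 µL received 50 nL stock; many hits fall short of the cut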
RanGTP-Imp inh = disruptors of Ran-importin-beta complex formation – biochemical, FRET, CFP-Ran, YFP-importin-beta, homogeneous, primary screen. 300,000 compounds, 1.1% hits. AID 2216. cell-free CFP-Ran/YFP-importin-beta FRET ratio. inhibition, % (concentration not given with the values);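 active = most replicates above 15%; inconclusive = exactly half above 15%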;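 note: 0% = DMSO wells and 100% = Ran loaded with GDP instead of GTP; wells of about 40 µL received 100 nL stock; the first replicate is given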
Calb FLC = affects C. albicans growth with fluconazole. C. albicans CaCi-2 (fluconazole-resistant clinical isolate) + fluconazole, Alamar Blue growth, 48 h. growth inhibition, % (concentration not given with the values). 300,000 compounds, 0.57% hits. AID 1979;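 active = most replicates above 75%; inconclusive = exactly half above 75%; inactive = most below 75%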;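 note: all wells also contain fluconazole at 8 µg/ml as a sub-toxic cotreatment; 0% = median of DMSO wells and 100% = median of geldanamycin control wells; wells of about 8 µL received 7.5 nL stock; the first replicate is given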
Beta apoptosis = blocks beta cell apoptosis; 300,000 compounds, 0.8% hits; AID 435005; protection from apoptosis, % (concentration not given with the values); INS-1E cytokine-induced death, ATP luminescence, 48 h; percent of positive-control rescue, neutral wells zero;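 active = all replicates at 75% or more, or half of them and the mean; inconclusive = half reach 75% but not the mean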;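 note: 0% = cytokine-treated negative control wells and 100% = positive control rescue; higher means more ATP so stronger rescue from cytokine killing; wells of about 40 µL received 100 nL stock; the first replicate is given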
MLL AF4-AF9 inh = inhibitors of human MLL-AF4/AF9 interaction; P42568; inhibition, % at 10 µM; AlphaScreen, biotin-AF4 peptide binding to FLAG-AF9; 350,000 compounds, 0.47% hits;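 active = every replicate reaching a set inhibition limit, whatever the replicate mean, cut at about 25% in these data; inconclusive = mean inhibition reaches that limit but some replicates miss it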;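 note: 0% = plate neutral control median and 100% = total signal loss; the record names both 10 and 1 µM as test concentration; the first replicate is given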
Target sequence (P42568 whole entry, looked up): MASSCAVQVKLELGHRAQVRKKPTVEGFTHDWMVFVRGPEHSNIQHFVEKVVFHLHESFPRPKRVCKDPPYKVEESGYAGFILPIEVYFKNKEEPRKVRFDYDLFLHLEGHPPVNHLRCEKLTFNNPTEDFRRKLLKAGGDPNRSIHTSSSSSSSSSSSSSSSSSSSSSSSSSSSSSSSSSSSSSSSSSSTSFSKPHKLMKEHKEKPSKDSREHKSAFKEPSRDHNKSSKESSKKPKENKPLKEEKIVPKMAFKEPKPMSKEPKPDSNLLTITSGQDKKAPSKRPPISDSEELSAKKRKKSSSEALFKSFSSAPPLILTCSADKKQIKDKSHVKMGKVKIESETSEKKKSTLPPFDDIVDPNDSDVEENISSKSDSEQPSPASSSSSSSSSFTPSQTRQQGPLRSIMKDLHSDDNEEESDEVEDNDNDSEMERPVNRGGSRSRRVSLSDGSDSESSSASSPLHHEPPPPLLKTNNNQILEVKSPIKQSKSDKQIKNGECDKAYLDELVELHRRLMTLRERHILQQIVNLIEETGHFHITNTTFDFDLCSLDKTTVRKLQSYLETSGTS
Ecoli rRNA inh = inhibits bacterial ribosomal RNA function over humanized ribosomes. 350,000 compounds, 1.6% hits. E. coli WT GFP vs humanized-ribosome RFP mutants, fluorescence, 24 h; stronger effect = lower value; DMSO median 0, no signal -100. GFP signal change (wild-type ribosome), % (no concentration beside the values);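 active = significant combined selectivity score with lowered wild-type GFP, culture density cut under 30%, mutant RFP and density less affected; inactive = any of these conditions unmet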; note: one replicate is shown; some compounds called inactive have numbers as strong as hits
Vif TR-FRET = HIV-1 Vif–A3G interaction blockers – biochemical, TR-FRET, GST-Vif 1-94, biotin-A3G peptide, dose response retest, primary screen (AID 1117319). TR-FRET GST-Vif / biotin-A3G peptide binding; higher % means a stronger effect; test concentration not given here; strong numbers were not always called active. inhibition, %; hits with a dose series show IC50 in µM. 260,000 compounds, 0.57% hits;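 active = above the screen mean plus three standard deviations and confirmed in dose response; inconclusive = results disagree or hit not tested in dose response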;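 note: Vif residues 1-94 fused to GST binding biotinylated APOBEC3G peptide 110-148; 0% = full assay without inhibitor and 100% = GST in place of GST-Vif; retest series ran down from 100 µM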
T cruzi inh = T. cruzi replication inhibition. T. cruzi beta-gal in NIH3T3, luminescence, 90 h. inhibition, % (no concentration beside the values). 300,000 compounds, 1.4% hits. AID 1885;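 active = mean inhibition across valid replicates above about 55%, limit read from the data; inconclusive = mean below that limit but half or more replicates reach it; inactive = mean below it, under half of replicates reach it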;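 note: signal also drops with host cell toxicity which is not excluded here; 0% = plate median of DMSO wells and 100% = zero luminescence signal; higher percent means less beta-gal luminescence so fewer parasites; stock transfer was 50 nL into about 50 µL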
Ecoli rRNA inh OD600 = further read-out of Ecoli rRNA inh, marked with its call; OD600 change, %; measured here: OD600 growth;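 optical density of the mix in the first replicate; 0 = DMSO median and -100 = no signal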
Ecoli rRNA inh RFP = recorded beside Ecoli rRNA inh, whose call it bears; RFP signal change, %; measured here: RFP humanized mutant strains;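 first replicate; 0 = DMSO median and -100 = no signal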
* = called active by the depositor; u = inconclusive; x = no result given; & = joins results of further samples.

SMILES	Bfl-1 A1 inh	RanGTP-Imp inh	Calb FLC	Beta apoptosis	MLL AF4-AF9 inh	Ecoli rRNA inh	Ecoli rRNA inh OD600	Ecoli rRNA inh RFP	Vif TR-FRET	T cruzi inh
C=CCn1c(C(CC)CC)nc2ccccc21	0.3	4.4	0.6	-3.8	-0.1	x	x	x	x	-32.5
CCOC(=O)c1ccccc1OCc1cc(/C=N/NC(=O)c2ccncc2)ccc1OC	1.5	-1.2	9.7	2.7	-1.8	-0.7	2.1	-0.1	-7.6%	-6.2
CCc1ccc(NC(=O)CC2C(=O)N(c3cccc(OC)c3)C(=O)N2CCOC)cc1 (stereo not given)	1.5	2.8	-7.8	-1.5	-1.0	-11.2	0.8	-0.6	x	6.6
COc1ccc(/C=C/C(=O)Nc2cccc(S(=O)(=O)NC3=NCCCCC3)c2)cc1OC	0.5	x	x	-1.0	3.7	-5.4	-10.4	0.9	-2.5%	x
CN1CCN(CCn2c(=S)[nH]c3ccccc3c2=O)CC1	1.4	0.8	0.2	0.8	-1.5	16.3	7.0	-0.3	-2.8%	-9.5
Cc1c(C(=O)NCC2CCCO2)sc2nc(-c3ccc(F)cc3)cn12 (stereo not given)	0.1	-2.6	2.0	-9.6	-6.0	-4.6	-7.2	-5.9	19.0%	-4.3
O=C(Nc1nc(-c2cccs2)cs1)c1ccc(S(=O)(=O)N2CCCCC2)cc1	-0.5	-4.3	-0.7	3.7	-0.3	-7.1	4.3	12.3	-4.0%	6.0
CCCN(C(=O)CSCc1ccccc1C)c1c(N)n(Cc2ccccc2)c(=O)[nH]c1=O	1.7	4.8	-2.7	0.5	1.2	8.1	7.3	1.7	6.7%	-4.6
CCOC(=O)C1CCCN(CCSc2ccc(C)cc2)C1 (stereo not given)	-0.1	-1.5	-58.5	-0.3	-7.4	-4.0	1.4	-4.7	x	8.2
C/C(=N/NC(=O)COc1cc(C)ccc1C(C)C)C(=O)O	-0.8	5.8	-6.4	0.5	0.2	6.5	11.2	0.1	3.3%	-18.9
C=CCNC(=O)C(=O)NN=C1CCN(C)CC1	0.1	3.3	-5.4	-8.4	4.2	10.2	11.4	-7.5	4.7%	-5.7
O=C(NCc1cccnc1)C1c2ccccc2C(=O)N1Cc1ccccc1 (stereo not given)	-0.5	5.6	-1.3	-0.1	3.8	-0.6	1.5	-0.7	-0.8%	-10.4
COc1ccc(CCNC(=O)CSc2nc(O)c(CCC(C)C)c(=O)[nH]2)cc1OC	-0.2	-0.4	11.5	x	x	x	x	x	x	6.8
NC(=O)NC(=O)CC1S/C(=N/N=C2\CSC(=O)N2)NC1=O (stereo not given)	2.0	0.8	-9.2	0.4	-2.3	7.7	2.8	-2.8	13.4%	-21.4
CC(C)(C)C#CC(CCc1ccccc1)OS(N)(=O)=O (stereo not given)	3.1	2.7	-13.1	-5.6	x	x	x	x	x	5.0
O=C(CCOc1ccccc1)NCC(c1ccco1)N1CCCCC1 (stereo not given)	-0.3	u	4.0	4.6	x	x	x	x	73.3%	-2.3
Cc1ccc(N(C(=O)c2sc(C)nc2C)C(C(=O)NC(C)(C)C)c2ccncc2)cc1 (stereo not given)	0.8	3.3	0.7	-2.4	7.0	4.4	12.2	1.1	9.2%	-8.8
O=C(Nc1ccc2c(c1)OCO2)C1CC(c2cccc(Br)c2)=NO1 (stereo not given)	1.8	1.4	-8.8	-1.7	-2.2	6.1	-7.5	-2.1	4.1%	-1.2
O=c1c2ccccc2nc(-c2ccc(Cl)cc2Cl)n1CCCn1ccnc1	-0.2	-1.4	27.2	6.2	x	x	x	x	-2.9%	-8.5
COc1ccc(C)cc1N(CC(=O)NC1CCCC1)C(=O)CCC(=O)Nc1cc(C)on1	-0.4	3.0	0.3	-6.2	x	x	x	x	21.2%	3.6
Cc1ccc(N2CCN(S(=O)(=O)N3CCCCC3)CC2)cc1C	0.5	10.4	-4.5	x	1.3	10.0	5.8	-0.2	-3.3%	30.5
O=C(NCCc1ccc(O)cc1)c1ccc(Cl)cc1	0.5	-1.5	-6.4	1.8	x	x	x	x	5.0%	-4.5
Cc1cccc(CSCCNC(=O)CN2C(=O)c3ccccc3S2(=O)=O)c1	0.2	0.1	1.2	0.3	2.6	-4.2	-16.9	-2.2	x	-11.0
CCCCn1c(=O)n(CC(O)c2ccccc2)c(=O)c2c1ncn2C1CCCC1 (stereo not given)	-0.4	-2.7	-14.9	8.2	x	x	x	x	2.7%	34.0
CCCCc1ccc(NC(=O)C2CCN(S(C)(=O)=O)CC2)cc1	0.1	-2.1	35.0	1.1	x	x	x	x	2.2%	-3.0
COc1ccc(N=C2SCC(=O)N2Cc2ccccc2)cc1	-0.3	1.9	9.3	3.8	1.0	-21.8	-33.2	-5.5	14.3%	-45.3
COc1ccc(NC(=S)NCCCc2ccccc2)cc1	0.0	3.0	-10.5	-3.5	3.8	-17.1	-18.1	-6.3	2.0%	-13.1
O=C(Cc1ccccc1)NNS(=O)(=O)c1ccc([N+](=O)[O-])cc1	-0.6	2.3	-15.5	0.2	-4.9	10.6	2.1	-7.7	1.0%	14.1
CCN(CC)c1ccc(NC(=O)CCc2nnc3ccc(N4CCCC4)nn23)c(C)c1	0.2	-2.3	1.7	3.0	3.2	-7.0	-11.7	-0.5	-0.7%	12.9
CCOc1ccc(CCNC(=O)c2nn(C)c3c2CS(=O)(=O)c2ccccc2-3)cc1	u	3.5	-20.0	-2.0	-4.5	-6.7	-20.5	3.4	x	7.8
CCOc1ccccc1NC(=O)NCc1ccccc1	0.1	5.8	-4.8	6.3	-3.7	4.2	-2.8	0.6	-4.2%	8.8
O=c1cc(N2CCN(Cc3ccccc3)CC2)c(-c2ccccc2)n[nH]1	0.0	-0.6	-7.6	-8.5	x	x	x	x	-9.1%	2.7
CC(C)C(=O)Nc1c2c(nn1-c1ccccc1)CSC2	0.9	-0.7	0.6	x	-3.4	7.0	18.1	-4.1	-6.7%	11.1
Cc1cc(C)c(C)c(S(=O)(=O)NCc2ccc(C(=O)N3CCN(C)CC3)cc2)c1C	-1.0	0.6	1.0	x	-1.1	0.9	2.9	-2.5	-14.7%	13.4
Cc1ccc(O)c(CNCCNCc2cc(C)ccc2O)c1	0.8	-1.1	-30.8	53.2	21.1	7.0	-1.1	-3.9	x	26.7
S=c1nc(-c2ccccc2Cl)n(Cc2cccnc2)c2c1CCCC2	0.9	3.3	-7.2	-8.6	1.5	-26.2*	-10.7*	5.3*	-7.3%	12.2
O=C(NC1CCCC1)c1ccc(CS(=O)(=O)c2ccc(Br)cc2)o1	0.4	-2.3	5.2	-4.6	-3.6	-7.0	-4.0	0.0	1.9%	4.1
CCn1cc(/C=N/NS(=O)(=O)c2ccc(OC)cc2)c(C)n1	0.8	1.3	-4.1	-4.8	x	x	x	x	u	x
c1ccc2c(c1)CCN(c1ncnc3c1[nH]c1ccccc13)C2	0.8	6.0	92.4*	7.3	x	x	x	x	-6.9%	17.2
CC(C)(C)NC(=O)COC(=O)CCC(=O)c1ccc(Cl)cc1	0.3	-2.7	u	x	-1.4	2.1	-6.8	1.4	3.6%	-13.5
CC1(C)OC2CCN3C(C(O)COS3(=O)=O)C2O1 (stereo not given)	1.4	0.3	-9.0	x	-0.8	4.2	-1.4	-2.7	x	-13.1
Cc1ccc(-c2cc(C(F)F)n3ncc(C(=O)N4CCN(c5cccc(C)c5C)CC4)c3n2)cc1	2.4	-4.3	-4.1	-13.9	x	x	x	x	-3.2%	48.0
CC(C)Cn1c(SC(C)C(=O)Nc2ccc3c(c2)OCCO3)nc2ccccc2c1=O (stereo not given)	x	7.8	6.3	x	x	x	x	x	-1.3%&2.3%	20.7
CCOc1cccc(CNCCO)c1OCc1ccc(Cl)cc1	-2.7	-1.3	-16.3	3.2	-3.6	4.9	-4.6	-4.5	18.9%	-5.4
COCCCNC(=O)c1cccc2c(=O)c(C)c(-c3ccccc3)oc12	0.1	-2.5	-7.3	4.7	x	x	x	x	4.4%	7.1
CC(C)Cn1c(N)c(C(=O)COC(=O)COc2cccc(C(F)(F)F)c2)c(=O)n(C)c1=O	-0.2	2.6	13.3	-2.6	-0.3	-2.0	-0.3	1.7	1.9%	-32.0
COc1cccc2sc(=NC(=O)CS(=O)(=O)c3ccc(F)cc3)n(C)c12	0.0	4.2	20.7	x	-12.4	8.4	6.6	-3.0	-122.9%	54.9*
Nc1[nH]nc2nc(-c3ccccc3)[nH]c(=O)c12	-0.6	1.9	2.7	-1.3	2.5	16.4	19.1	-1.5	4.2%	1.8
Cc1cccc(CC(=O)NCC2CCCCC2)c1	-0.3	2.2	-1.3	-1.9	x	x	x	x	-1.1%	-6.1
O=C(c1cc(F)ccc1F)C1CCCN(C(=O)CCCN2CCCCC2=O)C1 (stereo not given)	-0.7	3.0	1.2	-5.5	-1.7	4.1	0.5	-2.1	x	5.3

Other results:
SMILES	Bfl-1 A1 inh	RanGTP-Imp inh	Calb FLC	Beta apoptosis	MLL AF4-AF9 inh	Ecoli rRNA inh	Ecoli rRNA inh OD600	Ecoli rRNA inh RFP	Vif TR-FRET	T cruzi inh
O=c1oc2ccccc2c(O)c1C=Nc1cccnc1	1.7	-1.5	-10.4	-11.9	1.7	10.2	-2.0	0.9	10.3%	-30.6
CC(C)c1nc(-c2ccccn2)no1	0.8	x	-16.7	-2.7	x	x	x	x	-2.8%	-3.2
Cc1ccc(C(=O)NNC(=O)CSc2nnc(C3CC3)n2C)cc1	0.9	3.4	0.9	2.5	-11.1	14.2	16.3	3.6	-4.2%	-6.7
O=[N+]([O-])c1cccc(/C=C/c2ccc3cccc(O)c3n2)c1	-6.7	-2.6	-2.4	32.5	0.8	2.4	11.5	8.5	x	24.7
CCOc1ccc(N(CC(=O)O)S(=O)(=O)c2cccnc2)cc1	-1.7	-0.5	-2.2	-3.7	-7.0	8.6	10.3	-0.9	-1.1%	-9.3
O=C(Cn1cnc2ccccc21)Nc1ccc2c(c1)OCCCO2	-0.7	x	x	57.5	-2.4	2.3	0.6	-1.6	-1.2%	x
O=C(COc1nsnc1N1CCOCC1)N/N=C/c1ccccc1O	-0.5	8.5	1.4	3.8	5.0	-21.5*	8.7*	-1.2*	u	-24.4
CCN(C[C@H]1N[C@@](Cc2ccccc2)(C(=O)OC)[C@H]2C(=O)N(Cc3ccccc3)C(=O)[C@@H]12)C(=O)Nc1ccc(Cl)cc1	-0.5	x	x	18.5	-0.7	-42.2	-58.5	-9.5	x	x
O=C(Cc1ccccc1)c1c[nH]c(C(=O)C(Cl)(Cl)Cl)c1	0.4	-1.4	-2.5	x	0.8	13.6	13.2	-1.5	-1.1%	-11.0
CC(C)(C)c1ccc(C(=O)NNC(=O)Cc2cccc3ccccc23)cc1	0.8	0.3	2.6	-3.6	x	x	x	x	25.0%	15.7

A portion of the library; count on the stated rates, not on these rows.
